Compound activity as filed in PubChem.
VDR inh = vitamin D3 receptor (human) inhibition; P11473; VDR-SRC2-3 peptide fluorescence polarization, 2 h; Potency, µM, for the others: max response, negative = inhibition, actives largely listed as inhibitors; 400,000 tested, 0.93% active; AID 504847; active means well fitted inhibition curve with a large enough effect; inconclusive means small, poorly fitted or top-dose-only effect, or another doubt; inactive means no such curve, though single readings can be large or run the other way; further: series mostly up to about 120 µM
Target sequence (P11473 whole entry, looked up): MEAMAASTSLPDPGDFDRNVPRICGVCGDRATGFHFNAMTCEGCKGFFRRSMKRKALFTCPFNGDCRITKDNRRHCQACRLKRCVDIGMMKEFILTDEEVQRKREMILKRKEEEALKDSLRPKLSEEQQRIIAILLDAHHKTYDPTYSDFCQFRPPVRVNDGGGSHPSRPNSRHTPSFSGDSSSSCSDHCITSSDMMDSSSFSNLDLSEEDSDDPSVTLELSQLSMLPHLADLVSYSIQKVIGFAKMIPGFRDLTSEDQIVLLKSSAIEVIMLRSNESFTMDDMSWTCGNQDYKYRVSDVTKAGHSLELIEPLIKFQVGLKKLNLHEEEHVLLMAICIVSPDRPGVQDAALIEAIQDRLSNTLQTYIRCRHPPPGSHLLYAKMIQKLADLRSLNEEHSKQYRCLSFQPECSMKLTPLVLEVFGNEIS
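Measured by FP: displacement of SRC2-3 coactivator peptide from VDR by library compounds, following a two-hour ambient incubation.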
The depositor's hits bear a star; ? = inconclusive; & = joins results of further samples; [ ] = remark or other dose. On the % scale 0 is the no-effect control and ±100 the full control effect; potency means the concentration at half of the fitted maximal effect. Some of the compounds tested. The share of hits here may be higher or lower than overall.

VDR inh,smiles
0.9%,O=C(NN=C1CCCCCCCCCCC1)c1cccc(S(=O)(=O)N2CCOCC2)c1
-9.4%,CCCCNC(=S)N1CCN(Cc2ccc3c(c2)OCO3)CC1
13.5%,CCC(Sc1nc(N)c(NC(=O)c2ccco2)c(=O)[nH]1)C(=O)O (stereo not drawn)
-4.5%,CCOc1cc(CNCCO)cc(Br)c1OCc1cccs1
3.2%,Cc1ccc(OCc2n[nH]c(=S)n2Cc2ccccc2)cc1
-18.9%,Cc1cccc(NC(=O)C2CC2c2ccccc2)c1C (stereo not drawn)
-14.5%,Cc1cccc(COc2ccc(/C=N/NC(=O)c3nnn(-c4nonc4N)c3CN3CCCCC3)cc2)c1
-8.8%,N#CC(C(=O)Nc1cccc(Cl)c1)=C1Nc2ccccc2N1
-10.9%,CCOc1ccc(Br)cc1S(=O)(=O)Nc1ccc(Cl)c(S(=O)(=O)N(C)C)c1
1.5%,Cc1ccc(NC(=O)CC(c2ccc(F)cc2)N2Cc3ccccc3C2=O)cc1C (stereo not drawn)
8.1%,N#CCc1cc2ccc3cccc4ccc(c1)c2c34
12.3%,CCOc1ccc2nc(NC(=O)C(CCSC)NS(=O)(=O)c3cccs3)sc2c1 (stereo not drawn)
-7.9%,O=C(CCn1c(=O)oc2ccccc21)Nc1nccs1
27.1%,Cc1ccc(C(=O)Oc2cccc(NC(=O)c3cccs3)c2)cc1S(=O)(=O)N1CCOCC1
-5.8%,O=C(COC(=O)c1ccc([N+](=O)[O-])cc1)Nc1ccc(Cl)cn1
-3.5%,Cc1ccc(Nc2nnc(SCc3ccccc3)s2)cc1
3.6%,COc1ccc(/C=N/NC(=O)COc2ccc(Cl)cc2Cl)cc1Cn1nc(C)cc1C
-3.0%,Cc1cccc(N(C(=O)CNC(=O)c2ccco2)C(C(=O)NCC2CCCO2)c2ccccc2)c1 (stereo not drawn)
-4.6%,CCC(C)(C)n1nnnc1C(c1ccc(OC)cc1)N1CCN(C(=O)c2ccco2)CC1 (stereo not drawn)
-12.5%,C#CCn1c(=NC(=O)c2sc3ccccc3c2Cl)sc2cc(S(N)(=O)=O)ccc21
-10.0%,Cc1ccc(-c2nn3c(C)nnc3s2)cc1NCc1c(F)cccc1Cl
4.5%,CC(C)CC1C2C(=O)N(c3ccccc3)C(=O)C2ON1c1ccccc1 (stereo not drawn)
-1.6%&0.7%,c1ccc(-c2nc[nH]c2-c2ccccc2)cc1
-7.0%,COc1ccc(NC(=S)NC(=O)c2cccnc2)cc1
10.1%,Cc1nc2cc(NC(=O)COc3ccc(C#N)cc3)ccc2n1-c1ccccc1
2.3%,CCn1c(=O)n(CC)c2cc(N3CCCC3)c(NC(=O)c3ccc(C)c([N+](=O)[O-])c3)cc21
8.2%,COc1ccc(C)cc1NC(=O)CN(C)S(=O)(=O)c1ccc2[nH]c(=O)oc2c1
-25.6%,Cn1c(CSc2nc3ccc(Br)cc3[nH]2)nc2ccccc21
-14.9%,CCOC(=O)/C(=N\Nc1ccccc1)P(=O)(c1ccccc1)c1ccccc1
19.9%,O=C(c1ccncc1)N1N=C(c2ccc(Cl)cc2)CC1c1ccccc1O (stereo not drawn)

Seven compounds picked at random from the list so far:
VDR inh,smiles
-10.0%,Cc1ccc(-c2nn3c(C)nnc3s2)cc1NCc1c(F)cccc1Cl
-1.6%&0.7%,c1ccc(-c2nc[nH]c2-c2ccccc2)cc1
-12.5%,C#CCn1c(=NC(=O)c2sc3ccccc3c2Cl)sc2cc(S(N)(=O)=O)ccc21
2.3%,CCn1c(=O)n(CC)c2cc(N3CCCC3)c(NC(=O)c3ccc(C)c([N+](=O)[O-])c3)cc21
-4.6%,CCC(C)(C)n1nnnc1C(c1ccc(OC)cc1)N1CCN(C(=O)c2ccco2)CC1 (stereo not drawn)
-14.9%,CCOC(=O)/C(=N\Nc1ccccc1)P(=O)(c1ccccc1)c1ccccc1
3.6%,COc1ccc(/C=N/NC(=O)COc2ccc(Cl)cc2Cl)cc1Cn1nc(C)cc1C

(continued)
VDR inh,smiles
31.6µM*,COc1cc(/C=C/C(=O)c2ccc(F)cc2)cc(OC)c1OC
-1.9%,CN(C(=O)COC(=O)C1CCN(S(=O)(=O)c2ccc3c(c2)OCCO3)CC1)c1ccccc1
-0.9%,Cc1ccc(C(=O)Nc2ccccc2C(=O)NCc2ccco2)cc1S(=O)(=O)N1CCCCC1
-15.4%,O=C(CSc1n[nH]c(-c2ccco2)n1)Nc1ccc(Br)cc1
?,O=C(O)[C@H](Cc1ccccc1)NC(=O)N1CCN(c2ccc(F)cc2)CC1
-10.5%,CCCCOc1ccc(NC2=NC3(CCCC3)N=C(N)N2)cc1
0.0%,CCOC(=O)N1CCN(c2nc3ccccc3n3cnnc23)CC1
3.0%,COc1cccc(-c2nc(SCC(=O)NCc3ccccc3)c3c(=O)n(C)c(=O)n(C)c3n2)c1
-18.1%,CCN1CCN(C(=O)/C=C/c2ccc(OC)c(OC)c2)CC1
10.0%,C=C(C)C(O)/C=C/c1ccc(Br)cc1 (stereo not drawn)
-13.6%,COC(=O)Cc1c(C)c2ccc(OC3CCCCC3=O)c(C)c2oc1=O (stereo not drawn)
-26.1%,FC(F)(F)c1ccccc1-c1ccc2ncnc(NCc3cccs3)c2c1
-4.8%,O=C(CSc1nc2nccnc2c(=O)n1CCc1c[nH]c2ccccc12)Nc1ccc(F)cc1
-3.5%,Cc1ccc(NC(=O)c2cc([N+](=O)[O-])ccc2N2CCOCC2)cc1C
12.7%,Cc1nc2sccn2c(=O)c1S(=O)(=O)NCCc1ccc(Cl)cc1
-25.4%,O=C(NC(=S)Nc1nc(-c2cccc3ccccc23)cs1)c1cc2ccccc2o1
8.6%,CC(=O)OCP(C)(=O)COC(C)=O
-2.4%,CC(C)(C)c1ccc(C(=O)N2CCC(C(=O)NCc3ccncc3)CC2)cc1
-3.7%,O=C(COc1ccc(Cl)cc1)Nc1cccc(S(=O)(=O)NC2=NCCCCC2)c1
13.6%,NCC(O)COc1ccc2c(c1)OCO2 (stereo not drawn)
3.1%,Cc1ccc(NC(=O)C2CC(O)CN2C(=O)OCc2ccccc2)cc1C (stereo not drawn)
-2.3%,Cc1ccc(CN(CC(O)COc2cccc3[nH]cc(C)c23)C(C)(C)C)cc1 (stereo not drawn)
-6.8%,O=c1[nH]c(=O)c2ncn(C3OC(CO)C(O)C3O)c2[nH]1 (stereo not drawn)
-1.5%,Cc1cccc(OC(C)C(=O)Nc2ccccc2C(=O)N2CCCCC2)c1 (stereo not drawn)
-12.1%,O=C(NCCc1c[nH]c2ccccc12)/C(=C\c1cccnc1)NC(=O)c1cccs1
8.8%,Cc1ccc(Cn2cnc3c(oc4ccccc43)c2=O)cc1
-4.8%,CC(C)(C)NC(=O)/C=C/c1ccc(C(F)(F)F)cc1
-5.9%,COc1ccccc1CCn1c(=O)c(-c2ccc(F)c(F)c2)nc2cncnc21
5.3%,COc1ccc(N=C2SC(C(N)=O)CC(=O)N2CCc2ccc(OC)c(OC)c2)cc1 (stereo not drawn)
4.5%,O=C1CSC(c2cccnc2)N1c1ccccc1 (stereo not drawn)
100.9%[activator],O=C(O)COc1cnc2ccccc2n1
-5.5%,CCSC(=O)N1c2ccc(OC)cc2C=CC1C#N (stereo not drawn)
9.7%,CNC(=S)N/N=C(\C)c1ccc2c(c1)OCCO2
9.2%,C#CCOCCOCCOCCNc1nc(N2CCN(C(=O)[C@H](CCC(=O)O)n3cc([C@@H](N)CO)nn3)CC2)nc(N2CCN(C(=O)[C@H](CCC(=O)O)n3cc([C@@H](N)CCSC)nn3)CC2)n1
2.3%,COc1cccc(/C=C/C(=O)OCC(=O)NC2CC2)c1OC
-18.5%,Cc1coc2c(C)c3oc(=O)c(CCC(=O)N4C[C@H]5C[C@@H](C4)c4cccc(=O)n4C5)c(C)c3cc12
-1.2%,CC(=O)c1sc(NC(=O)c2ccccc2F)nc1C
-10.5%,O=C(NCc1ccc2c(c1)OCO2)c1cc([N+](=O)[O-])ccc1N1CCOCC1
11.0%,COc1ccc(C2CC3(O)NC(=O)C(C#N)(C3C)C2(C#N)C#N)cc1 (stereo not drawn)
-5.1%,Cc1cc(C)n(-c2cc(Cl)ccc2[N+](=O)[O-])n1
79.4µM*,COc1cccc(F)c1C(C[N+](=O)[O-])c1c(N)n(C)c(=O)n(C)c1=O (stereo not drawn)
1.9%,CCCCn1c(N)c(N(CCOC)C(=O)CCNC(=O)c2ccccc2Cl)c(=O)[nH]c1=O
-7.3%,Cn1ccnc1CN1CCN(C(=O)c2cc(COc3ccc(F)c(F)c3)on2)CC1
-21.7%,Cc1cc(C)n(CCC(=O)N2CCN(S(=O)(=O)c3ccccc3)CC2)n1
-5.9%,CC(c1ccccc1)n1cc(C(=O)NCc2ccccn2)nn1 (stereo not drawn)
-3.7%,Cc1ccc2nc(NCc3ccccc3)c(C=NCc3cccnc3)c(=O)n2c1
?,COc1ccc(C=CC(=O)c2ccc(OC)c(OC)c2O)cc1OC
8.6%,CC(CN1CCCCC1)OC(=O)c1ccc2c(c1)OCO2 (stereo not drawn)
7.2%,Cc1ccc(N2CC(C(=O)Nc3nc4ccc(S(C)(=O)=O)cc4s3)CC2=O)cc1 (stereo not drawn)
7.3%,Cc1cccc2c1-c1sc(C(=O)NCCCN3CCCC(C)C3)cc1CO2 (stereo not drawn)
-12.7%,CCOC(=O)C1(C)/C(=N/Nc2ccccc2OC)C(=O)C(=O)N1c1ccccc1 (stereo not drawn)
3.5%,Cc1cccc(-c2noc(CCC(=O)NCc3ccco3)n2)c1
-11.5%,CCCc1cnc(N2CCN(S(C)(=O)=O)CC2)nc1
-7.8%,O=C(Nc1cccc(Cl)c1N1CCOCC1)c1cccnc1
-9.2%,OC1CCCN(Cc2cccc3ccccc23)C1 (stereo not drawn)
-23.7%,O=C1Nc2ccc(S(=O)(=O)NCCCO)c3cccc1c23
1.3%,COCCCNc1nc2c(c(=O)n(C)c(=O)n2C)n1Cc1cccc(OC)c1
16.1%,CC(=O)Nc1c2c3c(cccc3n(C)c1=O)C(=O)c1ccccc1-2
?,COC(=O)c1c(NC(=O)/C=C/C(=O)O)sc(C)c1-c1ccc(C)cc1
-2.9%,Cc1ccc(CCNC(=O)c2cnc3c(-c4ccc(F)cc4)c(C)nn3c2C)cc1

In the list so far, these have a CF3 group:
VDR inh,smiles
-26.1%,FC(F)(F)c1ccccc1-c1ccc2ncnc(NCc3cccs3)c2c1
-4.8%,CC(C)(C)NC(=O)/C=C/c1ccc(C(F)(F)F)cc1

More structures
VDR inh,smiles
3.7%,C#CCOCCOCCOCCNc1nc(N2CCOCC2)nc(N2CCN(C(=O)[C@H]([C@@H](C)O)n3cc(CCCCN)nn3)CC2)n1
11.9%,O=c1c2cc3c(cc2n(Cc2ccccc2)c(=O)n1Cc1nc(-c2ccccc2)no1)OCO3
-6.4%,CN1CCN(C(=S)NC(=O)c2ccc(C(C)(C)C)cc2)CC1
0.3%,O=[N+]([O-])c1cnc2ccccn12
-2.5%,CC(C)c1ccc(NC(=O)c2ccc3snnc3c2)cc1
5.0%,COc1ccc(CSCC(=O)N/N=C/c2ccccc2O)cc1
14.2%,COc1ccc(C(=O)NCC(=O)OCc2nc(N)nc(Nc3ccccc3C)n2)cc1
1.2%,CCOC(=O)C1(CC2CC2)CCN(Cc2cn[nH]c2-c2cccc(F)c2)CC1
3.5%,O=C(COC(=O)c1cccnc1Cl)c1ccccc1
-20.2%,O=C(COC(=O)c1cccc(F)c1)Nc1cccnc1Cl
-6.2%,CCOc1ccccc1NC(=O)c1ccc2[nH]c(C)c(C)c2c1
-11.3%,CCOC(=O)c1ccc(NC(=S)N2CCN(C)CC2)cc1
-7.5%,COc1ccc(CCNCC(=O)Nc2ccc(C)c(S(=O)(=O)N(C)C)c2)cc1OC
-19.6%&-2.3%,COc1ccc(-c2ccc(-c3cc(=O)oc4cc(OC)c(OC)c(OC)c34)cc2)cc1F
-3.4%,O=C(COC(=O)c1cccnc1Cl)c1ccc2c(c1)OCCO2
17.4%,COc1ccc(-c2onc(C)c2C)cc1S(=O)(=O)NCC(C)c1ccccc1 (stereo not drawn)
?,O=C1CN(Cc2ccccc2)S(=O)(=O)c2ccccc21
6.8%,CSc1cnn(-c2ccccc2)c(=O)c1SC
89.1µM*,N#C/C(=C/c1ccc(F)cc1)C(N)=S
6.2%,O=C(NC(=S)NCc1ccccc1)c1ccccc1F
10.1%,COc1ccc(S(=O)(=O)NCc2cc(-c3ccccc3Cl)no2)cc1
-10.5%,CC(=O)OC(C)=O
1.6%,CCOc1ccc(-n2ccnc2SCC(=O)N2CCCc3ccccc32)cc1
39.8µM*,COc1cc(/C=C2/N=C(C3CCCCC3)OC2=O)cc(OC)c1OC
-2.4%,CC(C)NC(=O)C(=O)NCCCOC(C)C
1.9%,COC(=O)c1c(C)nc(C)c(C(=O)OC)c1-c1ccccc1[N+](=O)[O-]
-5.5%,CCc1nnc(NC(=O)Cc2ccc(OC)c(OC)c2)s1
25.6%,COc1ccc(-c2cc(C(=O)OCC(=O)N(C)C3CCS(=O)(=O)C3)c3ccccc3n2)cc1OC (stereo not drawn)
-1.6%,CC(C(=O)Nc1ccccn1)c1ccccc1 (stereo not drawn)
6.2%,CC(=O)N/N=C/C1=CCC2CC1C2(C)C (stereo not drawn)
-11.4%,O=C(Nc1ccc(F)cc1)C1CC(=O)N(Cc2ccco2)C1 (stereo not drawn)
0.7%,C[C@H](CO)N1C[C@H](C)[C@@H](CN(C)Cc2ccc(C(=O)O)cc2)Oc2ccc(NS(C)(=O)=O)cc2C1=O
-3.6%,O=C(NCc1nnc2c(C(F)(F)F)cc(Cl)cn12)c1cccs1
-25.5%,COc1ccc(Cl)cc1C(=O)NNC(=O)c1cccc([N+](=O)[O-])c1
-10.2%,CN(CC(=O)Nc1ccc(F)cc1)C(=O)CSc1ccc2c(c1)OCCO2
?,BrC(=C\c1ccccc1)/C=N/N1CCN(c2ccccn2)CC1
-11.1%,CCn1nc(C)c(CNCc2cn[nH]c2-c2cc3ccccc3o2)c1C
-10.6%,CC(=O)c1ccc(NC(=O)C(C)OC(=O)C(C)Oc2cccc(C)c2)cc1 (stereo not drawn)
